VDR inhibitor: inhibitors of human vitamin D receptor; VDR-SRC2-3 peptide fluorescence polarization, 2 h; P11473; Potency, µM, for the others: max response, negative = inhibition, usual class: inhibitors; 400,000 compounds, 0.93% hits; active means well fitted inhibition curve with a large enough effect; inconclusive means small, poorly fitted or top-dose-only effect, or another doubt; inactive means no such curve, though single readings can be large or run the other way; further: series mostly up to about 120 µM
Target sequence (P11473 whole entry, looked up): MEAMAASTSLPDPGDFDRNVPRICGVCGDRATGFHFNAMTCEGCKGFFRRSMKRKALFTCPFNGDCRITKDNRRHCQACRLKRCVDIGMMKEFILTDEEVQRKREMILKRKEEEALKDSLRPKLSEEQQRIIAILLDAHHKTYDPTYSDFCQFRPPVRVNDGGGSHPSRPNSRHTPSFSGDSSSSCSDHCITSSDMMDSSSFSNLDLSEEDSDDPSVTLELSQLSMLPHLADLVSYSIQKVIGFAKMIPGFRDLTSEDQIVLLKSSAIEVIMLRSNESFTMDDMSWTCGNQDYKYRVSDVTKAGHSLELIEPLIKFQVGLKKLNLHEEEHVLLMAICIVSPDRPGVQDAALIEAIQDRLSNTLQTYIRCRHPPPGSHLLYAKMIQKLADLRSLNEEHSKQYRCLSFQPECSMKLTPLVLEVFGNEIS
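VDR–SRC2-3 interaction, FP format. Cmpds 23 nl via pintool, brief spin, 2 h ambient incubation.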
* marks the source's active call; other numbers are inactive results; ? = inconclusive; & = joins results of further samples; [ ] = remark or other dose. On the % scale 0 is the no-effect control and ±100 the full control effect; potency means the concentration at half of the fitted maximal effect.

SMILES | VDR inhibitor
O=c1[nH]c(/C=C/c2cccnc2)c([N+](=O)[O-])c(=O)[nH]1 | -14.7%
Cc1cc(NC(=O)CSc2nc(-c3ccccc3)cs2)no1 | -4.6%
O=C(CS(=O)(=O)c1ccccc1)NCc1ccccc1 | 7.7%
CC(=O)Nc1cc2nc(C)n(Cc3ccc([N+](=O)[O-])cc3)c2nc1C | -12.5%
O=c1oc2c3c(ccc2c2ccccc12)OCN(Cc1ccccc1Cl)C3 | -1.2%
CCOc1ccccc1NC(=O)CSc1cc(=O)n(CC)c2ccccc12 | 5.2%
COc1ccccc1NC(NC(=O)c1cccnc1)C(Cl)(Cl)Cl (stereo not drawn) | 13.4%
Fc1ccc(NCc2nnc3n2CCCCC3)cc1Cl | 10.2%
COC(=O)c1cc(COC(=O)COc2ccc(C)c(C)c2)oc1C | -14.1%
CCC(CC)C(=O)Nc1c2c(nn1-c1ccc(F)cc1)CS(=O)(=O)C2 | 9.3%
CCOc1ccc(NS(=O)(=O)c2cccc(C(=O)NCC3(N(C)C)CCCCC3)c2)cc1 | 2.8%
Cc1cc(C(=O)NNC(=O)c2nn(C)c(=O)c3ccccc23)c(C)o1 | -17.3%
Cc1ccc(C)c(Cn2c(=O)n(-c3ccc(Cl)cc3)c(=O)c3c(C)c(C)sc32)c1 | -7.3%
C[C@@H](O)[C@H]1C(=O)N2C(C(=O)O)=C(S[C@@H]3CN[C@H](C(=O)N(C)C)C3)[C@H](C)[C@H]12 | 4.0%
O=C(O)c1ccc(CSc2ncn[nH]2)cc1 | -1.6%
C/C(C/C(C)=C1/SC(=S)NC1=O)=C1\SC(=S)NC1=O | ?
COC(=O)NC1CSCC1OC(=O)CN1C(=O)c2ccccc2C1=O (stereo not drawn) | -6.0%
CC1(C)C2(C#N)C(N)=NC3(OCCO3)C12C#N (stereo not drawn) | 11.9%
O=C(Cn1cnc2c(nnn2Cc2ccc(Cl)cc2)c1=O)OCc1ccccc1 | -6.4%
O=C(CCc1nnc2ccc(N3CCC4(CC3)OCCO4)nn12)Nc1ccc(F)cc1 | ?
CN(C)c1cc[nH]c(=O)c1C#N | 12.1%
Cc1c(C(=O)O)cccc1-c1ccc(/C=C2\SC(=O)NC2=O)o1 | -9.6%
CN(c1ccc(C(=O)NC2CCCC2)cc1)S(=O)(=O)c1ccc(Cl)cc1 | 0.2%
CCCCNC(=O)c1ccc(-c2nc(CS(=O)(=O)c3ccc(C)cc3)c(C)o2)cc1 | 28.0%

Look-ups from the entries so far.
VDR inhibitor result of CC1(C)C2(C#N)C(N)=NC3(OCCO3)C12C#N (stereo not drawn) reads 11.9%
VDR inhibitor result of COC(=O)NC1CSCC1OC(=O)CN1C(=O)c2ccccc2C1=O (stereo not drawn) reads -6.0%

Continuation:
SMILES | VDR inhibitor
Cc1cccc(OCC(=O)Nc2ccccc2OCc2cc(=O)n3cc(C)ccc3n2)c1 | 2.1%
COC(=O)Cn1c2c(c3cc(C)ccc31)CCCC2 | -7.5%
O=C(O)C1C2C=CC(O2)C1C(=O)Nc1ccc(S(=O)(=O)N2CCc3ccccc32)cc1 (stereo not drawn) | 16.5%
CC(C)OC(=O)c1cn(-c2ccccc2)nc1-c1ccco1 | 79.4µM*
COc1ccc(-c2csc(C(C#N)=C(O)CSc3nccn3C)n2)cc1OC | 12.6%
CCC(C)(NC(=O)c1ccccn1)C(=O)NC1CCCCC1 (stereo not drawn) | 10.3%
Cc1ccc(-c2cc(C(=O)Nc3c(C(=O)c4ccc(C)c(F)c4)oc4ccccc34)no2)cc1 | 15.0%
COc1cc(C2C(C#N)=C(N)Oc3c2ccc2ccccc32)ccc1OCC(=O)Nc1ccc(C)cc1 (stereo not drawn) | 4.2%
CCn1c(SCC(=O)NC(C)(C)C)nnc1-c1ccccn1 | 5.5%
Cc1nc(C2CCCCC2)c(-c2ccccc2)c(N2CCOC2=O)c1C | -21.5%
CSCCC(NC(=O)C1CCC(C)CC1)C(=O)Nc1ccc(NC(C)=O)cc1 (stereo not drawn) | -7.3%
CN1c2ccccc2C(C)(C)C12C=Nc1c(ccc3ccccc13)O2 (stereo not drawn) | -18.7%
O=C(c1ccccn1)N1CCN(S(=O)(=O)c2ccc(F)cc2)CC1 | -9.8%
CCS(=O)(=O)c1ccc(O)c(NC(=O)Nc2ccccc2)c1 | 11.8%
COc1ccc(N(CC(=O)Nc2ccc3c(c2)OCO3)S(C)(=O)=O)c(OC)c1 | 27.7%
O=C(N/N=C/c1ccccn1)NC12CC3CC(CC(C3)C1)C2 | 3.0%
CC(C)CC(=O)NC1(C(F)(F)F)C(=O)Nc2c1c(=O)[nH]c(=O)n2-c1ccccc1 (stereo not drawn) | -10.6%
Cc1ccc(C)c(CN2C(=O)c3ccccc3S(=O)c3ccc(C(=O)NCCc4ccc(Cl)cc4)cc32)c1 (stereo not drawn) | -12.9%
OCC1(CCOc2ccccc2)CCN(Cc2ccc3cccc(F)c3n2)CC1 | -12.0%
COc1ccc(C)cc1NC(=O)CSc1nc2ccccc2nc1N1CCCC1 | -3.1%
CN1CCN(C2CC(=O)N(c3ccc4c(c3)OCCO4)C2=O)CC1 (stereo not drawn) | -6.8%
CN1C(=O)CC(N2CCN(C(=O)c3ccccc3)CC2)C1=O (stereo not drawn) | -5.7%
Cc1cc(C)n(-c2ccc(OCC(=O)O)nn2)n1 | 8.7%
O=S(=O)(NC1CC1)c1ccc(Br)cc1N1CCC[C@H]1CO | -1.0%

Rewritten with values ahead of the structure: part of the list above
VDR inhibitor	Compound
?	O=C(CCc1nnc2ccc(N3CCC4(CC3)OCCO4)nn12)Nc1ccc(F)cc1
12.1%	CN(C)c1cc[nH]c(=O)c1C#N
-9.6%	Cc1c(C(=O)O)cccc1-c1ccc(/C=C2\SC(=O)NC2=O)o1
0.2%	CN(c1ccc(C(=O)NC2CCCC2)cc1)S(=O)(=O)c1ccc(Cl)cc1
28.0%	CCCCNC(=O)c1ccc(-c2nc(CS(=O)(=O)c3ccc(C)cc3)c(C)o2)cc1
2.1%	Cc1cccc(OCC(=O)Nc2ccccc2OCc2cc(=O)n3cc(C)ccc3n2)c1
-7.5%	COC(=O)Cn1c2c(c3cc(C)ccc31)CCCC2
16.5%	O=C(O)C1C2C=CC(O2)C1C(=O)Nc1ccc(S(=O)(=O)N2CCc3ccccc32)cc1 (stereo not drawn)
79.4µM*	CC(C)OC(=O)c1cn(-c2ccccc2)nc1-c1ccco1
12.6%	COc1ccc(-c2csc(C(C#N)=C(O)CSc3nccn3C)n2)cc1OC
10.3%	CCC(C)(NC(=O)c1ccccn1)C(=O)NC1CCCCC1 (stereo not drawn)
15.0%	Cc1ccc(-c2cc(C(=O)Nc3c(C(=O)c4ccc(C)c(F)c4)oc4ccccc34)no2)cc1
4.2%	COc1cc(C2C(C#N)=C(N)Oc3c2ccc2ccccc32)ccc1OCC(=O)Nc1ccc(C)cc1 (stereo not drawn)
5.5%	CCn1c(SCC(=O)NC(C)(C)C)nnc1-c1ccccn1
-21.5%	Cc1nc(C2CCCCC2)c(-c2ccccc2)c(N2CCOC2=O)c1C
-7.3%	CSCCC(NC(=O)C1CCC(C)CC1)C(=O)Nc1ccc(NC(C)=O)cc1 (stereo not drawn)
-18.7%	CN1c2ccccc2C(C)(C)C12C=Nc1c(ccc3ccccc13)O2 (stereo not drawn)
-9.8%	O=C(c1ccccn1)N1CCN(S(=O)(=O)c2ccc(F)cc2)CC1
11.8%	CCS(=O)(=O)c1ccc(O)c(NC(=O)Nc2ccccc2)c1
27.7%	COc1ccc(N(CC(=O)Nc2ccc3c(c2)OCO3)S(C)(=O)=O)c(OC)c1
3.0%	O=C(N/N=C/c1ccccn1)NC12CC3CC(CC(C3)C1)C2
-10.6%	CC(C)CC(=O)NC1(C(F)(F)F)C(=O)Nc2c1c(=O)[nH]c(=O)n2-c1ccccc1 (stereo not drawn)
-12.9%	Cc1ccc(C)c(CN2C(=O)c3ccccc3S(=O)c3ccc(C(=O)NCCc4ccc(Cl)cc4)cc32)c1 (stereo not drawn)
-12.0%	OCC1(CCOc2ccccc2)CCN(Cc2ccc3cccc(F)c3n2)CC1
-3.1%	COc1ccc(C)cc1NC(=O)CSc1nc2ccccc2nc1N1CCCC1
-6.8%	CN1CCN(C2CC(=O)N(c3ccc4c(c3)OCCO4)C2=O)CC1 (stereo not drawn)

(cont.)
SMILES | VDR inhibitor
Fc1ccc(CN2CCCCCCC2)c(F)c1 | 0.7%
O=c1[nH]c2ccc(Cl)cc2c(-c2ccccc2)c1CN1CCOCC1 | ?
COc1ccc(OCCOC(=O)c2cccs2)cc1 | 22.1%
Oc1ccc(-c2c(-c3ccccc3)nn3c(C(F)(F)F)cc(C(F)(F)F)nc23)cc1 | -6.9%
C=CCS/C(N)=N\N=C\c1c(O)ccc2ccccc12 | -2.0%
COC(=O)c1sccc1NC(=O)c1cc(C)on1 | 3.4%
O=C1CC(NS(=O)(=O)c2ccc(F)cc2)CN1c1ccc2c(c1)OCCO2 (stereo not drawn) | -5.1%
CN(C)c1cc(Nc2ccc(O)cc2)c([N+](=O)[O-])c2nonc12 | -15.7%
CCOC(=O)c1ccc(S(=O)(=O)N2CCC(C(=O)NCc3ccccc3OC)CC2)cc1 | -1.8%
COc1ccc(C(=O)NC(C)C2CC3CCC2C3)c(OC)c1 (stereo not drawn) | -10.6%
COc1ccc(C(OCC(O)CN2CCC(O)CC2)c2ccc(OC)cc2)cc1 (stereo not drawn) | 9.2%
C/C(=N\NC(=O)c1ccc(Br)o1)c1cc2c(cc1NC(=O)CCC(=O)O)OCO2 | 1.9%
Cc1ccc(C(C)C)c(OC(=O)/C=C/c2ccccc2)c1 | -5.3%
O=C(C1CC1)N1CCc2cc(Br)c(S(=O)(=O)N3CCCCCC3)cc21 | 5.7%
CC(C)N(Cc1ccccc1)C(=O)CCS(=O)(=O)c1cc2c(cc1Cl)NC(=O)CO2 | 13.5%
Cc1cc(C)c2nc(NC(=O)c3ccc(S(=O)(=O)N4CCC(C)CC4)cc3)sc2c1 | 21.7%
CCOC(=O)c1ccccc1NC(=O)COC(=O)CC1CCCCC1 | 12.3%
COc1ccc(CNc2nc(-c3cccnc3)nn2S(C)(=O)=O)cc1 | 8.2%
CC(C)c1cc(C(=O)Nc2cc(Br)ccc2O)no1 | 23.5%
Nc1c(N(CCCO)C(=O)C2CCCCC2)c(=O)[nH]c(=O)n1Cc1ccccc1 | -12.5%
O=C1CC(NC2CCN(C(=O)c3cccc(F)c3)CC2)C(=O)N1 (stereo not drawn) | -7.8%
COC(=O)c1c(N)c2ccccc2[nH]c1=O | -8.8%
CCCCCN(C(=O)CCC(=O)OCc1ccc(C(C)(C)C)cc1)c1c(N)n(CCCC)c(=O)[nH]c1=O | -4.8%
O=C(CN1CCC(NC(=O)c2cccc(F)c2)CC1)NCc1cccs1 | 12.3%
O=C(CN1C(=O)c2ccccc2C1=O)NC(Cc1ccccc1)C(=O)O (stereo not drawn) | 20.8%
CCOC(=O)c1c(C)n(-c2ccccc2)c2ccc(OC(=O)COc3ccccc3)cc12 | -18.9%
C/C(=N\OCC(=O)OCC(=O)N(Cc1ccccc1)C(C)(C)C)c1ccc2c(c1)OCO2 | -8.5%
Nc1ncnc2c1ncn2[C@@H]1O[C@H](CN=C2NS(=O)(=O)c3ccccc32)[C@@H](O)[C@H]1O | -3.7%
O=C(COC(=O)Cc1cccc(C(F)(F)F)c1)Nc1ccc2c(c1)OCCO2 | -6.9%
COc1ccc(C2N(Cc3ccccc3)CCN2Cc2ccccc2)cc1[N+](=O)[O-] | -2.1%
COc1ccccc1OCC(=O)NCC1CCCCC1 | -6.8%
C[C@H](NC(=O)C1CC(=O)N(c2ccc3c(c2)OCCO3)C1)C(=O)N1CCCCC1 (stereo partly drawn) | -9.3%
CN(C)S(=O)(=O)N1CCN(C(=O)c2ccccc2)CC1 | -3.4%
Cc1ccc(NC(=O)Cc2sc(C)nc2-c2ccc(C)cc2)cc1 | 10.0%
CCN(CC)S(=O)(=O)c1cc(C(=O)Nc2ccc(Cl)cn2)ccc1C | -3.2%
CCc1ccccc1S(=O)(=O)Cc1ccc(C(=O)NCCc2ccc(Cl)cc2)o1 | -3.8%
COc1ccccc1C(=O)NCC1(N2CCN(C)CC2)CCCCC1 | 5.0%
CCOC(=O)C1=C(C)N=C2SC(C(=O)OC)=CC(=O)N2C1c1cccc(OC)c1 (stereo not drawn) | -11.0%
Cc1ccc(CNS(=O)(=O)c2ccc(N3CCCCS3(=O)=O)cc2)cc1 | 6.0%
Cc1cccc(NC(=O)CSc2ccc(C(N)=O)cc2[N+](=O)[O-])c1C | 5.9%
CCN(CC)CCC(c1cc(OC)c(OC)c(OC)c1)c1c(O)cc(OC)cc1OC (stereo not drawn) | -14.9%&-21.1%
CC1CCc2nc(NC(=O)COc3ccc(C(C)(C)C)cc3)sc2C1 (stereo not drawn) | 8.6%
CSc1nc(O)c(C2OC(=O)c3ccccc32)c(=O)[nH]1 (stereo not drawn) | 1.9%
CCC(=O)c1cc2c(C)cc(=O)oc2c(C)c1O | 3.9%
Cc1ccsc1C(=O)N(C)CC(=O)Nc1ccccc1Br | -11.1%
Cc1ccc2nc(NC(=O)CN(C)S(=O)(=O)c3cccc4nsnc34)sc2c1 | -6.6%
Cc1ccc(N=Cc2c(O)n(-c3cc(Cl)ccc3N3CCOCC3)c(=O)c3ccccc23)cc1C | 3.9%
CN1CCN(NC(=O)c2ccc(Br)c(S(=O)(=O)N3CCOCC3)c2)CC1 | -6.1%
CC(C)N(C(C)C)S(=O)(=O)c1ccc(N2CCc3ccccc3C2)nc1 | -7.4%
Cn1c(CSc2ccccc2)c(C#N)c2ccccc21 | 60.4%[activator]
Cc1ccc(NC(=O)CN2CCOCC2)c(Br)c1 | -2.9%
CC(C)Cn1cc(C(=O)NCCCOC(C)C)c2c3ccccc3n(C)c2c1=O | -14.5%
CC(=O)C1(O)C(C)CC2C3CC(F)C4(O)CC(O)CCC4(C)C3CCC21C (stereo not drawn) | -1.7%

The list is partial. The share of hits here may be higher or lower than overall.
